# MARV entry inh – qHTS for inhibitors of binding or entry into cells for Marburg Virus | Marburg virus pseudotyped entry inhibition, cell reporter; control for the full effect not named in the record; about a third of the inactives were read at about 46 µM | Potency, µM (titrated, usually from 37.8 µM), for the others: at the highest dose activity change, negative = inhibition, most hits filed as inhibitors | 1.8% of 300,000 active | AID 540276, 2011; active = well fitted inhibition curve with a large enough effect; inconclusive = small, poorly fitted or top-dose-only effect, or effect the other way; inactive = flat fitted curve, though single readings scatter; tested in HEK293 cells; about a fifth of its hits are not listed in these tables; also: % is scaled to controls: 0 for no effect and ±100 for the full control effect; luciferase read-out
# Cruzain inh Det – qHTS Assay for Promiscuous and Specific Inhibitors of Cruzain (with detergent); 0.43% of 200,000 active; Cruzipain (Trypanosoma cruzi), P25779; Potency, µM, for inactives: max response, negative = inhibition, most hits filed as inhibitors; purified cruzain, Z-FR-AMC fluorescence, 0.01% Triton; active = well fitted curve in the direction sought with a large enough effect; inconclusive = small, poorly fitted or top-dose-only effect, or another doubt; inactive = no such curve, though single readings can be large; an effect the other way counts as inactive or inconclusive;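 also: plate controls were neutral wells for no effect and buffer without enzyme for full effect; nearly all actives have a fitted effect of over 40% in size; top concentration of the series not given in the record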
# Target sequence (P25779 123-467 limits assumed): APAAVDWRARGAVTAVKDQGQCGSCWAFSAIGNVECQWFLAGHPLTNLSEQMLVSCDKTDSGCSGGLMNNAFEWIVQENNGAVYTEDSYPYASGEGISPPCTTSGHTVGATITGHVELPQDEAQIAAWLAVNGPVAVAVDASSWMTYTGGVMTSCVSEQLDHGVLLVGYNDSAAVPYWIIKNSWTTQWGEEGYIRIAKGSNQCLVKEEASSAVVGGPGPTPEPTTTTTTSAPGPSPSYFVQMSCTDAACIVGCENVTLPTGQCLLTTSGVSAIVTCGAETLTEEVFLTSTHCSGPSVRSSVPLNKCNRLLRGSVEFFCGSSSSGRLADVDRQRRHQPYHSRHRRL
#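 Cysteine protease activity tested under reducing, mildly acidic conditions (100 mM sodium acetate pH 5.5, 5 mM DTT) plus 0.01% Triton X-100. Cruzain 1.5 nM; substrate Z-FR-AMC 2 uM; 15 min compound preincubation at room temperature.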
# NS1 inh – qHTS Assay for Inhibitors of Influenza NS1 Protein Function; S. cerevisiae slowed by influenza A NS1, growth recovery by OD600; Potency, µM (highest dose often 46.1 µM), for inactives: at the top dose activity, positive = more growth; 0.4% of 270,000 active; also: actives are rising curves; nearly all actives have a fitted effect of over 50% in size
#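 OD600 was taken as the measure of yeast growth restored by compound in an NS1-expressing S. cerevisiae strain. Cells had been washed out of glucose medium and diluted 1:100 into galactose -URA medium, pH 6.0.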
# RE007 growth inh – qHTS Assay for Inhibitors of the HIV-1 protein Vpr; S. pombe RE007 Vpr strain, BacTiter-Glo ATP luminescence, 24 h; control for the full effect not named in the record; Potency, µM (titrated, usually from 92.2 µM), without a hit: at the top dose activity change, negative = less growth; 0.21% of 360,000 active; AID 651644, 2012; active = well fitted falling curve with a large enough effect; inconclusive = small, poorly fitted or top-dose-only effect; inactive = no such curve, though single readings can be large or run the other way;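 also: % is scaled to controls: 0 for no effect and ±100 for the full control effect; nearly all actives have a fitted effect of over 50% in size; the assay follows cell death caused by Vpr and the record does not say whether a fall means rescue or toxicity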
#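 Fission yeast RE007 carrying one integrated HIV-1 vpr copy, seeded at OD 0.01 in PMG+AL medium with 23 nL pinned compound. Grown 24 h at 30 degrees; viability read by BacTiter-Glo luminescence after 5 min.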
# Lassa entry inh – qHTS for Inhibitors of binding or entry into cells for Lassa Virus; Potency, µM (titrated, usually from 37.9 µM), for the others: top-dose activity change, negative = inhibition, most hits filed as inhibitors; 1.2% of 300,000 active; Lassa virus pseudotype entry inhibition, cell reporter; control for the full effect not named in the record; active means well fitted inhibition curve with a large enough effect; inconclusive means small, poorly fitted or top-dose-only effect, or effect the other way; inactive means flat fitted curve, though single readings scatter; tested in HEK293 cells; also: % is scaled to controls: 0 for no effect and ±100 for the full control effect; nearly all actives have a fitted effect of over 50% in size; luciferase read-out
# 2A StopGo – High Throughput Screening for Foot and Mouth Disease Virus Antivirals | human cells with a luciferase reporter of 2A StopGo recoding; control for the full effect not named in the record | Potency, µM (top dose mostly 57.9 µM), for the others: at the highest dose signal change, negative = less light | 1.2% of 410,000 active; active = well fitted falling curve with a large enough effect; inconclusive = small, poorly fitted or top-dose-only effect; inactive = no such curve, though single readings can be large or run the other way; tested in HEK293T cells; also: % is scaled to controls: 0 for no effect and ±100 for the full control effect; nearly all actives have a fitted effect of over 45% in size; luciferase light after 4 h
# SARS PLP yeast – qHTS of Yeast-based Assay for SARS-CoV PLP. Potency, µM (doses to about 32.9 µM), for the others: at the top dose activity, positive = growth rescue. S. cerevisiae expressing SARS-CoV PLpro, growth rescue; control for the full effect not named in the record. 0.19% of 330,000 active; also: 0% is about no effect; nearly all actives have a fitted effect of over 55% in size; growth read by luminescence after 48 h
# Cruzain inh noDet – qHTS Assay for Promiscuous and Specific Inhibitors of Cruzain (without detergent) | Cruzipain (Trypanosoma cruzi), P25779 | purified cruzain, Z-FR-AMC fluorescence, no detergent | Potency, µM, inactives show max response, negative = inhibition, actives largely listed as inhibitors | 2.3% of 200,000 active; active = well fitted curve in the direction sought with a large enough effect; inconclusive = small, poorly fitted or top-dose-only effect, or another doubt; inactive = no such curve, though single readings can be large; an effect the other way counts as inactive or inconclusive;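 also: plate controls were enzyme without inhibitor for no effect and buffer without enzyme for full effect; nearly all actives have a fitted effect of over 40% in size; top concentration of the series not given in the record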
#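 Purified cruzain at 1.5 nM, pre-incubated 15 min with compound at room temperature in 100 mM sodium acetate pH 5.5, 5 mM DTT, 0.00005% Triton X-100. Reaction started with 2 uM Z-FR-AMC; AMC fluorescence increase over 60 s gives rate.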
# Starred values were filed as active, the others as inactive; ? = inconclusive; · = no result given; & = joins results of further samples; [ ] = dose if it differs, or a comment. Unless noted, calls follow the shape of the dose curve; as a rule, active means well fitted rising curve with a large enough effect; inconclusive means small, poorly fitted or top-dose-only effect; inactive means no such curve, though single readings can be large or run the other way. Potency is read from the fitted curve at half-maximal effect.
structure | Lassa entry inh | SARS PLP yeast | NS1 inh | MARV entry inh | Cruzain inh noDet | RE007 growth inh | Cruzain inh Det | 2A StopGo
COc1ccc2nc3ccccc3nc2c1NC(=O)c1ccccc1Cl | -18% | 1% | 2% | -13%[46.1 µM] | · | 8% | · | ?
CC(=O)/C(=N\Nc1ccc(C)cc1)N1CCOCC1 | -15% | -4% | -128% | ? | 1% | 22% | -3.3% | -2%
COc1ccc(CNC(=O)C2CCN(S(=O)(=O)c3ccc4nc5c(c(C(=O)O)c4c3)CCCC5)CC2)cc1 | ? | · | · | · | ? | -6% | -0.3% | -7%&-10%
Cc1cc(C(=O)COC(=O)c2ccncc2)c(C)n1Cc1ccco1 | ? | 2% | · | -33%[46.1 µM] | · | -8% | · | 9%
CCOc1ccc(CCNC(=O)COC(=O)Cc2ccc(F)cc2)cc1OCC | 26% | 4% | · | -7%[46.1 µM] | · | 2% | · | -3%
CCOc1ccc(NC(=O)c2cccc(NC3=NC4CS(=O)(=O)CC4S3)c2)cc1 (configuration not stated) | · | 3% | -10% | · | · | 1% | · | 6%
OCc1nc2ccccc2n1Cc1c(F)cccc1Cl | 15%[46.1 µM] | -1% | -7% | -9%&-9%[46.1 µM] | 6% | 3% | -0.9% | -28%&-16%
Cc1cc(OCCCCN2C(=O)NC(C)(C)C2=O)ccc1[N+](=O)[O-] | -21%[46.1 µM] | 0% | -11% | ? | · | -9% | · | -8%
COc1ccc(/C=C2\N=C(C)N(c3ccc4ccccc4c3)C2=O)cc1OC | -4% | 12% | 18% | -2% | ? | -13% | -4.6% | -18%
COc1ccc(CCNC(=O)NCc2noc3ccccc23)c(OC)c1 | -24%[46.1 µM] | · | · | · | -7% | · | -1.0% | 4%
COc1ccc(N(C(=O)Cn2nnc3ccccc32)C(C(=O)NC(C)(C)C)c2ccc(OC)c(O)c2)cc1 (configuration not stated) | 0% | 1% | -2% | 5% | · | 1% | · | 6%
Cc1cc(C)nc(-n2nc(C)cc2NC(=O)CNCc2ccccc2)n1 | 6% | 1% | 10% | ? | -4% | 2% | 0.2% | -20%
CCOC(=O)CC(=O)NC(CC(=O)OC)c1ccc(Br)cc1 (configuration not stated) | 17% | 2% | · | 8% | · | 0% | · | -12%
CC(=O)c1cccc(NC(=O)COC(=O)CC2CC3CCC2C3)c1 (configuration not stated) | -6% | -3% | · | 9% | · | -1% | · | -6%
O=C(c1ccccc1F)N1CCN(c2ccc([N+](=O)[O-])c(N3CCOCC3)c2)CC1 | ? | 1% | -11% | ? | · | -14% | · | -13%
CCOC(=O)CN(C(=O)COc1nc(-c2ccccc2)cc(C)c1C#N)c1cccc(OC)c1 | · | 2% | 9% | · | · | 21% | · | -23%
COc1ccc2nc3oc(C(=O)NC4CCN(Cc5ccccc5)CC4)cc3cc2c1 | 18% | 5% | -7% | 4% | -5% | -9% | -9.5% | -20%
CCCC(=O)c1ccc(N2CCN(S(=O)(=O)c3ccc(C)cc3)CC2)c(F)c1 | -17% | -1% | -3% | -29% | 9% | 3% | -2.3% | ·
Cc1ccccc1CN1C[C@@H]2C[C@@H](c3cnc(N4CCOCC4)s3)N3CCC[C@@]23C1=O | · | 0% | 1% | · | · | -1% | · | -11%
CCC(C(=O)N1CCN(c2ccccc2)CC1)n1c(C)c2cnn(-c3ccccc3)c(=O)c2c1C (configuration not stated) | -4%[46.1 µM] | · | · | 14%[46.1 µM] | ? | · | -6.6% | ?
O=C(CN1C(=O)c2cccnc2Oc2ccc(Cl)cc21)Nc1ccc(F)cc1 | · | -2% | 18% | · | · | -12% | · | -3%
Oc1ccccc1OCCOc1ccccc1OCCOc1ccccc1O | -9% | -4% | -53% | -15%[46.1 µM] | · | 4% | · | ?
CCOCCCNC(=O)CCS(=O)(=O)Cc1ccc(C)cc1 | -15% | 1% | -3% | ? | -2% | 17% | 2.2% | ·
Cc1cc(/C=C(\C#N)C(=O)Nc2ccc(Cl)cc2)c(C)n1-c1ccc(N2CCOCC2)c([N+](=O)[O-])c1 | ? | 3% | 16% | -19% | 7.9µM* | 23% | -6.5% | ?
O=C(O)c1ccc(Br)c(S(=O)(=O)N2CCCC2)c1 | -40%[14.3 µM] | ? | 18% | -9% | 4% | 5% | 4.7% | 16%
CCOc1cc(C2C(C(=O)N3CCCCC3)=C(C)NC3=C2C(=O)CC(C)(C)C3)ccc1O (configuration not stated) | -14% | -2% | -1% | 7% | 3% | 8% | -1.3% | 19%
Cc1ccc(S(=O)(=O)N2CCCC2CNC(=O)c2ccccc2)cc1 (configuration not stated) | 6% | -3% | · | -19% | · | 4% | · | 3%
COc1cccc(CN2CCN(C(=O)CC(C)C)CC2)c1 | -8% | 2% | -7% | -13% | -11% | 26% | 2.9% | -13%
CN(C1(C)CCS(=O)(=O)C1)S(=O)(=O)c1ccc(F)cc1 (configuration not stated) | · | -2% | 3% | · | · | 7% | · | 0%
COc1cccc(N(CC(=O)NC2CCCC2)C(=O)Cn2nnc(-c3ccc(C)o3)n2)c1 | · | 1% | -2% | ? | · | -1% | · | 5%
CCc1ccc(NC(=O)CC2C(=O)N(c3ccc(OC)cc3)C(=O)N2CCOC)cc1 (configuration not stated) | · | -1% | 16% | · | · | -1% | · | 5%
CCN1CCN(CCNC(=O)c2ccc3c(c2)NC(=O)/C(=C\c2ccc(OC)c(OC)c2)S3)CC1 | · | -5% | -5% | · | · | 3% | · | -9%
COc1ccc(C2=CC3=C(Br)C(=O)C(C)(OC(=O)c4ccco4)C(=O)C3=CO2)cc1 (configuration not stated) | · | 1% | -56% | 4%&4%[14.2 µM] | -16% | ? | -0.8% | -16%
O=c1c2ccccc2oc2ccc(Oc3ccccc3)cc12 | · | -7% | -26% | · | · | -16% | · | 32%[activator]
COc1ccc(OCCCN2CCCC(C)C2)cc1 (configuration not stated) | -1% | -1% | 0% | ? | 5% | -19% | -1.8% | -10%
COc1cc(CN2CCN(c3cccc(C)c3C)CC2)cc(OC)c1O | 19% | 1% | 2% | ? | -12% | 0% | 1.8% | -3%
Cc1csc(=O)n1CC(=O)OCC(=O)N(CC(C)C)c1c(N)n(Cc2ccccc2)c(=O)[nH]c1=O | 24% | -7% | · | 9%[46.1 µM] | · | -9% | · | 1%
CC1=NN(c2ccccc2)C(=O)C1/C=C1/C(=O)NC(=O)N(c2cc(C)cc(C)c2)C1=O (configuration not stated) | 5% | -2% | 11% | 8% | 2% | 0% | -1.8% | ?
COc1ccccc1CNC(=O)c1cnn2c(C)c(Cc3ccc(F)cc3)c(C)nc12 | ? | · | · | · | -6% | · | ? | -12%
Cc1ccc(C)c(COC(=O)c2cccc(S(=O)(=O)N3CCCC3)c2)c1 | ? | 6% | · | -28% | · | 3% | · | -9%
COc1cccc(NC(=O)Cn2cc(C(=O)c3ccc(C)cc3)c(=O)c3cc(OC)ccc32)c1 | 12%[46.1 µM] | -11% | · | -7%[46.1 µM] | -11% | · | -6.3% | 3%
O=C(c1ccc([N+](=O)[O-])cc1)N1CCN(C(=O)c2ccco2)CC1 | 7% | 0% | -3% | 3%[46.1 µM] | · | 7% | · | 12%
COc1ccc(NC(=O)CN(Cc2ccccc2)S(=O)(=O)c2ccc(C)cc2)cc1Cl | ? | · | · | · | -6% | · | -0.5% | ?
CCC(C)(C)C1CCc2[nH]nc(C(=O)NN)c2C1 (configuration not stated) | 19% | -5% | -2% | 2% | · | 24% | · | 0%
COc1ccc(COc2ccccc2C(N)=O)cc1F | -1%[46.1 µM] | -14% | -3% | 11% | 2% | 1% | -0.1% | 18%
CN(C(=O)CN1C(=O)/C(=C/c2ccc(F)cc2)SC1=S)C1CCS(=O)(=O)C1 (configuration not stated) | · | 3% | -2% | · | · | -5% | · | -9%
Cc1cc(C)c2c(-n3cccc3)nn(CC#N)c2n1 | 6% | 0% | -11% | -1% | -4% | 19% | 0.2% | -9%
CCCCCOc1ccc(Br)cc1/C(C)=N/NC1=NCCN1 | ? | -41% | 1% | 10µM* | -7% | -8% | -17% | ?
O=C(Nc1ccc(N2CCOCC2)cc1)c1ccc(COc2ccccc2)cc1 | 12%[46.1 µM] | 4% | 11% | ? | · | -5% | · | -27%
COCCNC(=O)c1ccccc1NC(=O)c1nsc2ccccc12 | 23%[46.1 µM] | · | · | · | ? | · | -10% | 12%
CC1(C)Cc2ccccc2C(N)=C1C#N | 2% | -4% | 7% | 8% | 6% | 2% | -1.0% | -15%
Cc1ccc(SCC(=O)NCCSCc2ccccc2)cc1 | 6% | 2% | -18% | ? | -12% | -5% | -4.5% | -7%
COc1cc(/C=C/c2nc3ccccc3s2)cc(OC)c1O | ? | -2% | · | 6%[46.1 µM] | · | -13% | · | 36%[activator]
COC(=O)c1ccc(NC(=O)CN2C(=O)CCC2=O)cc1 | 1% | 6% | 1% | -20% | 2% | -4% | 2.1% | -2%
Cc1ccc(C(=O)COC(=O)C(C)N2C(=O)C3C4C=CC(C4)C3C2=O)cc1 (configuration not stated) | -1% | -14% | -6% | -2% | -3% | -1% | -2.0% | -6%
CCOC(=O)N1CCC(NS(=O)(=O)c2cc3c(cc2Cl)NC(=O)CO3)CC1 | 1.8µM* | 0% | 6% | -27%[46.1 µM] | 0% | -6% | -0.4% | -23%
Cc1noc(C)c1C(=O)N1CCCC(N2CCN(c3cccc(C(F)(F)F)c3)CC2)C1 (configuration not stated) | · | -1% | 2% | · | · | 8% | · | 5%

# Screens deposited in PubChem by National Center for Advancing Translational Sciences (NCATS).
